Screening data (PubChem BioAssay)
V. cholerae motility = Vibrio cholerae motility inhibitors, OD read-out (AID 588778) | Vibrio cholerae motility, OD read-out; higher % means a stronger effect; test concentration not given here; primary cut-off and reference of the scale not given here; strong numbers were not always called active | one-dose inhibition, %; IC50 in µg/mL for titrated hits | 10,000 tested, under 10 active; in the data active means confirmed in a dose series
V. cholerae motility viability = also measured in V. cholerae motility; calls as there; inhibition, %; measured here: bacterial viability at 10 ug/mL;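 higher means fewer living bacteria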
The depositor's hits bear a star; i = inactive. An excerpt; rates above refer to the full screens.

SMILES	V. cholerae motility	V. cholerae motility viability
Cc1c(Cl)cccc1-c1ccc(C(=O)Nc2ccc(Cl)cc2F)o1	-7%	-7
c1ccc2c(c1)nc1c2ccc2[nH]onc21	19%	-3
Cc1ccccc1NC(=S)Nc1ccccc1Oc1ccccc1	-5%	-6
O=C(Nc1nc(-c2ccccc2)cs1)C1Cc2ccccc2CN1S(=O)(=O)c1cccs1 (centres undefined)	-4%	24
CSc1nsc(SCc2cnc(C)nc2N)n1	3%	-2
Cn1c(SCC(=O)Nc2nc3ccccc3s2)nnc1-c1ccco1	2%	-3
N#CCCn1nc(-c2ccccc2)cc1-c1ccccc1	21%	3
O=C(Nc1ccncc1)c1ccc2nc[nH]c2c1	-8%	-5
Nc1ccccc1-c1nnc(SCc2ccccc2F)[nH]c1=O	15%	-3
COc1ccc(NC(=O)CCC(C(C)=O)[N+](=O)[O-])cc1 (centres undefined)	-2%	-2
CCOc1ccc(NC(=O)CCCOc2ccc(Cl)cc2C)c([N+](=O)[O-])c1	-28%	-15
COCCNC(=O)c1c(NC(=O)c2nc(SC)ncc2Cl)sc2c1CCCC2	23%	5
Clc1cccc(OCCn2cncn2)c1Cl	1%	2
COc1ccc(CSCC(=O)NCCC(C)C)cc1	4%	-5
O=C(Oc1ccc(F)cc1F)c1ccc(F)cc1	4%	-2
COC(=O)C1=NN(C(=O)c2cccc(OC)c2)C(C)(O)C1 (centres undefined)	-6%	-7
N#Cc1c(-c2ccccc2)nc(SCC(=O)Nc2ccc(Cl)cn2)[nH]c1=O	10%	21
CCOC(=O)c1cc(NC(=O)N2CCCCC2)c(C)nc1C	3%	0
CC[n+]1c(/C=C/c2ccc(-c3ccc([N+](=O)[O-])cc3)o2)ccc2ccccc21	i	54
COc1ccc(C2CC(=O)C(C=Nc3cc(Cl)ccc3Cl)=C(O)C2)cc1 (centres undefined)	-1%	-3
N#CCC(=O)Nc1ncn(Cc2ccccc2Cl)n1	-6%	-4
Cc1nc2ccccc2nc1OCC(=O)c1ccc(Cl)cc1	-10%	-5
O=C(CCCC(=O)Oc1ccccc1F)Nc1ccc(I)cc1	-3%	9
Cc1ccccc1N(C(F)F)S(=O)(=O)c1cc([N+](=O)[O-])ccc1C	11%	1
CSc1nsc(SCCN2C(=O)c3ccccc3C2=O)n1	0%	0

(list continues)
SMILES	V. cholerae motility	V. cholerae motility viability
Cc1cc(S(=O)(=O)Nc2cccc(Cl)c2C)ccc1F	14%	4
C=CCSc1nnc(CCc2nnc(SCC=C)n2-c2ccccc2)n1-c1ccccc1	1%	-6
COc1ccc(CNC(=O)NC(=O)C(F)(F)F)cc1	-3%	-1
Cc1c(Cc2ccccc2)sc(NC(=O)/C=C/c2cccc([N+](=O)[O-])c2)c1C(N)=O	1%	-1
Nc1nnnn1CC(=O)NC(c1ccccc1)c1ccccc1	-4%	3
CC1=C(C(=O)Nc2ccccc2)C(c2ccc(Cl)cc2)C(C(=O)Nc2ccccc2)=C(C)N1	30%	-1
N=C1C(c2nc3ccccc3s2)=C(O)CN1c1ccccc1Br	-1%	-2
CCN(CC)S(=O)(=O)c1ccc(C(=O)N2CCN(C3=NS(=O)(=O)c4ccccc43)CC2)cc1	2%	-3
COc1ccc(/C(N)=N/OC(=O)C(F)(F)F)cc1	9%	1
CC1CN=C(N(Cc2cccnc2)C(=O)Nc2cccc(Cl)c2)S1 (centres undefined)	10%	-2
c1ccc(-c2nnc(CNCc3cccs3)o2)cc1	3%	-1
CS(=O)(=O)Nc1ccc(Br)cc1C(=O)c1ccccc1	-3%	-12
CC(C)C(=O)Nc1cccc(C(=O)Nc2ccc(F)cc2F)c1	16%	20
Cc1ccc(O)c(C(CC(=O)NCc2cccnc2)c2ccccc2)c1 (centres undefined)	12%	19
O=C(NCc1ccncc1)c1ccc(CN2CCc3ccccc3C2)cc1	19%	32
Nc1[nH]nc2ncc3cc4ccccc4nc3c12	16%	3
COc1ccc(CCNC(=O)CCCN2C(=O)c3cccc4cccc(c34)C2=O)cc1OC	-4%	-3
S=C(NCc1ccccc1)Nc1ccc(Br)cc1	85%	97
CCCS(=O)(=O)c1ccc(COC(=O)CCC(=O)Nc2ccccc2C(F)(F)F)cc1	3%	1
Cc1ccc(S(=O)(=O)O)c(C)c1N1CCCC1=O	5%	-1
CC(C)CC(=O)Nc1ccc(N2CCC(C)CC2)cc1	-2%	29
C=CCNc1nc(N)c(C(=O)Nc2cc(C)on2)s1	6%	7
Cc1ccc(OCCn2ccnc2)c(Cl)c1	i	15
CCOC(=O)CNC(=S)Nc1ccc([N+](=O)[O-])cc1OC	-1%	-1
COc1cc2c(cc1OC)CN(C(=O)CSC1=C(C#N)C(c3cccs3)C(C(=O)Nc3ccccc3)=C(C)N1)CC2 (centres undefined)	-12%	0

2 records drawn at random from the list so far:
SMILES	V. cholerae motility	V. cholerae motility viability
Cc1cc(S(=O)(=O)Nc2cccc(Cl)c2C)ccc1F	14%	4
Cc1ccc(OCCn2ccnc2)c(Cl)c1	i	15

Remaining list, next part.
SMILES	V. cholerae motility	V. cholerae motility viability
COC(=O)c1cc(C(=O)OC)c(C)nc1C	-26%	-13
COc1ccc(/C=C2/C(=O)NC(=O)N(CCc3ccc(F)cc3)C2=O)c(OC)c1	8%	-2
N#CSCC(=O)c1cccc2ccccc12	63%	53
COc1ccc(/C(C#N)=C/c2ccccn2)cc1OC	1%	1
S=C(Nc1ccc(Cl)cc1)Nc1nc(-c2ccccc2)c(-c2ccccc2)o1	11%	-2
CC(=Nc1ccc([N+](=O)[O-])cc1)N(C)C	-4%	-3
CCOC(=O)C1CCCN(S(=O)(=O)N(C)C)C1 (centres undefined)	-4%	-4
FC(F)(F)c1ccccc1NC(=S)Nc1cccc(Cl)c1	8%	-5
CC(=O)CC(=O)NC1CCCCCCC1	-17%	7
O=c1[nH]c(CSc2nnc(-c3ccccc3)n2-c2ccccc2)nc2ccccc12	20%	3
O=C(NC1=NCCS1)c1csc2ccccc12	21%	-1
CC(=O)Nc1c(O)cc(Br)c2nonc12	11%	21
Cc1c(C(=O)N2CCN(C(c3ccccc3)c3ccccc3)CC2)sc(N)c1C#N	-32%	-10
CC(=O)c1ccc(NC(=O)Nc2ccc(Br)cc2C)cc1	-26%	-7
O=C(Nc1ccccc1)C(F)C(F)(F)F (centres undefined)	20%	7
O=C(NCCc1ccc(F)cc1)C1CCCO1 (centres undefined)	4%	-1
COc1ccc2[nH]c3c(c2c1)CCNC3c1ccccc1Cl (centres undefined)	1%	-2
O=C(CCS(=O)(=O)Cc1ccccc1)NC1CCCCC1	4%	0
Clc1ccc2nc3c4ccccc4c4ccccc4c3nc2c1	6%	23
COc1ccc(OC)c(C(=O)c2ccc(C(=O)NCc3nc(-c4ccccc4)cs3)cc2)c1	-24%	-11
COc1ccc(C2(C(=O)Nc3c(Cl)cccc3Cl)CCCC2)cc1OC	5%	4
Cc1cc(C)n2ncc(C(=O)Nc3ccc(OC(F)(F)F)cc3)c2n1	-5%	0
O=C1CC(c2ccccc2)c2c(ccc3ccccc23)O1 (centres undefined)	14%	1
O=c1cc(CSc2nc3ccccc3c(=O)n2-c2ccc(F)cc2)c2ccccc2[nH]1	1%	1
O=C(Nc1ccccc1C(=O)N1CCOCC1)c1ccc(CN2CCc3ccccc3C2)cc1	8%	4

Going on with the list.
SMILES	V. cholerae motility	V. cholerae motility viability
O=S(=O)([N-]c1nc2ccccc2nc1-[n+]1ccccc1)c1ccc(Cl)cc1	-7%	-5
COc1ccc(C(=O)NCC23C=CC(O2)C2C(=O)N(Cc4ccccc4)C(=O)C23)cc1 (centres undefined)	6%	2
CCC(Sc1nnc2c3ccccc3n(CCc3ccccc3)c2n1)C(=O)Nc1ccc(S(N)(=O)=O)cc1 (centres undefined)	-17%	-6
CC(=O)c1ccc(NC(=O)NNC(=O)c2ccccc2-n2cccc2)cc1	-8%	3
NS(=O)(=O)c1ccc(NC(=S)Nc2ncn(Cc3cccc(C(F)(F)F)c3)n2)cc1	6%	2
N/C(=N\OC(=O)Oc1ccccc1)c1ccc([N+](=O)[O-])cc1	11%	1
Cc1cc(C(=O)NCc2cc(C(=O)O)co2)co1	5%	-7
O=C(CN1CCCCC1)Nc1cccc(-n2cnnn2)c1	4%	0
O=c1n(CCSc2nnnn2-c2ccccc2)nnn1-c1ccccc1	9%	-1
CC(=O)N(CCC(c1ccccc1)c1ccc(OC(C)C)cc1)Cc1ccccc1F (centres undefined)	0%	4
CC1C(c2ccc(Cl)cc2)NC(c2ccc(Cl)cc2)C(C)C1(O)c1ccc(F)cc1 (centres undefined)	-2%	-2
O=C(O)c1ccc2c(c1)C(=O)N(C(Cc1ccccc1)C(=O)O)C2=O (centres undefined)	8%	3
S=C(NC1c2ccccc2Oc2ccccc21)c1ccccc1	-29%	-8
N#Cc1c(NC(=O)c2cnn3c2NC(c2ccccc2)CC3C(F)(F)F)sc2c1CCC2 (centres undefined)	12%	5
Cc1ccc(S(=O)(=O)NC(=O)Oc2ccc(C(C)(C)C)cc2)cc1	2%	-1
CN(C1CCCCC1)S(=O)(=O)c1ccc(NC(=O)C(F)(F)F)cc1	15%	1
COc1ccc(N2CCN(C(=O)c3c(F)cccc3F)CC2)cc1	9%	-6
CCOC(=O)N1CCN(C(=O)c2ccccc2CCc2ccccc2)CC1	2%	2
COC(=O)N1c2ccc(F)cc2CCC1C (centres undefined)	7%	-5
O=C(OCc1nnc(-c2ccccc2)o1)C1c2ccccc2Oc2ccccc21	-5%	-8
O=C1NC(=O)N(c2ccc(Cl)c(Cl)c2)C1=O	-4%	-1
COc1ccc(C2C(C#N)=C(N)Oc3n[nH]c(C)c32)cc1CSc1nc2ccccc2o1 (centres undefined)	-6%	-1
CC1(C2CCCCC2)Cc2ccccc2-c2nc3[nH]ncn3c(=O)c21 (centres undefined)	56%	15
CCC(c1ccccc1)c1nc(-c2cccc([N+](=O)[O-])c2)no1 (centres undefined)	14%	4
Nc1nc2cc(Cl)ccc2n1CCCO	1%	-2

(continued)
SMILES	V. cholerae motility	V. cholerae motility viability
Clc1ccccc1CSc1ncn[nH]1	1%	-5
COc1ccccc1Nc1nnc(C)c(=O)n1N	9%	-3
O=S(Cc1ccccc1)c1nc2ccccc2s1 (centres undefined)	-7%	3
COC(=O)CNC(=O)C1Cc2ccccc2CN1S(=O)(=O)c1ccc(F)cc1 (centres undefined)	5%	6
Cc1cc(Cl)ccc1NC(=S)Nc1cccnc1	14%	1
N#CCCn1cc(C(=O)Nc2nccs2)c(-c2ccccc2)n1	-1%	1
O=Cc1ccc(OC(=O)/C=C/c2ccccc2Cl)cc1	3%	-1
Cc1ccc(N2C(=O)NC(NS(=O)(=O)c3ccccc3)(C(F)(F)F)C2=O)cc1C (centres undefined)	9%	0
O=C(Nc1ccc(Br)cn1)c1cc2ccccc2o1	1%	-6
Cc1cc2nn(-c3ccc(Cl)cc3)nc2cc1NC(=O)CCc1ccccc1	5%	1
CN(C)S(=O)(=O)N1CCC(C(=O)O)(c2ccccc2)CC1	-26%	-14
CCOC(=O)N1CCN(CCC(=O)Nc2cc([N+](=O)[O-])ccc2OC)CC1	5%	0
COc1cc(C(=O)Nc2nnc(Cc3ccc(Cl)cc3)s2)c([N+](=O)[O-])cc1OC	92%	41
O=C(Cn1cncc1-c1ccc([N+](=O)[O-])cc1)Nc1ccccc1F	-19%	-14
COc1ccc(Cl)cc1Nc1n[nH]c(C)c1[N+](=O)[O-]	-16%	-8
CC(=O)N1CCN(S(=O)(=O)N2CCCCC2)CC1	17%	14
Cc1cc(NS(=O)(=O)Cc2ccccc2)no1	7%	0
COc1ccc(N2CCN(C(=O)COc3cc(C)c(Br)c(C)c3)CC2)cc1	10%	4
CC(C1CC1)N(C(=O)c1ccccc1O)c1ccccc1 (centres undefined)	-25%	-12
CC12COC3(C(=O)O)CC1CCC32C (centres undefined)	-10%	-7
Fc1c(F)c(F)c(SCCc2ccncc2)c(F)c1F	-13%	-5
Cc1cnn(C(=S)NCc2ccco2)c1	3%	-1
COC(=O)c1c(C)nc2n(CCN3CCCCC3)c3ccccc3n12	-3%	3
CCc1nc(-c2ccccc2)cc(=O)[nH]1	12%	2
Cc1ccc(CC(=O)NCCCn2ccnc2)cc1	14%	1
COc1ccccc1Nc1nc(N)nc(CN2CCC(Cc3ccccc3)CC2)n1	13%	3
FC(F)(F)COc1nc(N2CCOCC2)nc(N2CCN(Cc3ccccc3)CC2)n1	16%	25
CCn1c(=O)n(CC)c2cc(NS(=O)(=O)c3ccccc3)c(Br)cc21	2%	5
COC(=O)c1ccc(CSc2nc(N)cc(=O)[nH]2)cc1	6%	3
O=C(OCc1ccccc1F)c1ccc([N+](=O)[O-])cc1Cl	46%	19

17 successive records already listed, for reference:
SMILES	V. cholerae motility	V. cholerae motility viability
Cc1cc(Cl)ccc1NC(=S)Nc1cccnc1	14%	1
N#CCCn1cc(C(=O)Nc2nccs2)c(-c2ccccc2)n1	-1%	1
O=Cc1ccc(OC(=O)/C=C/c2ccccc2Cl)cc1	3%	-1
Cc1ccc(N2C(=O)NC(NS(=O)(=O)c3ccccc3)(C(F)(F)F)C2=O)cc1C (centres undefined)	9%	0
O=C(Nc1ccc(Br)cn1)c1cc2ccccc2o1	1%	-6
Cc1cc2nn(-c3ccc(Cl)cc3)nc2cc1NC(=O)CCc1ccccc1	5%	1
CN(C)S(=O)(=O)N1CCC(C(=O)O)(c2ccccc2)CC1	-26%	-14
CCOC(=O)N1CCN(CCC(=O)Nc2cc([N+](=O)[O-])ccc2OC)CC1	5%	0
COc1cc(C(=O)Nc2nnc(Cc3ccc(Cl)cc3)s2)c([N+](=O)[O-])cc1OC	92%	41
O=C(Cn1cncc1-c1ccc([N+](=O)[O-])cc1)Nc1ccccc1F	-19%	-14
COc1ccc(Cl)cc1Nc1n[nH]c(C)c1[N+](=O)[O-]	-16%	-8
CC(=O)N1CCN(S(=O)(=O)N2CCCCC2)CC1	17%	14
Cc1cc(NS(=O)(=O)Cc2ccccc2)no1	7%	0
COc1ccc(N2CCN(C(=O)COc3cc(C)c(Br)c(C)c3)CC2)cc1	10%	4
CC(C1CC1)N(C(=O)c1ccccc1O)c1ccccc1 (centres undefined)	-25%	-12
CC12COC3(C(=O)O)CC1CCC32C (centres undefined)	-10%	-7
Fc1c(F)c(F)c(SCCc2ccncc2)c(F)c1F	-13%	-5
